Mtb betalactam: beta-lactam sensitization of Mtb H37Rv, H37Rv; M. tuberculosis H37Rv growth with meropenem, percent inhibition; hits of this screen are not shown here; inhibition, % at 25 µM; 330,000 compounds, 0.27% hits;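 active = about 74% or more and at least 40 points above the plate without the antibiotic, then above 30% in a dose series; inconclusive = first-round hits that could not be retested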;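 also: growth measured after seven days incubation then overnight dye step; 0% = bacteria only wells and 100% = bacteria with antibiotic; twin plates without the antibiotic show which effects depend on it; some results filed as inactive read as strong as hits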
RecA intein inh: Mtb RecA intein splicing inhibitors, primary screen, biochemical, fluorescence, HTS; Protein RecA (Mycobacterium tuberculosis (strain ATCC 25618 / H37Rv)), P9WHJ3; cell-free RecA intein splicing; inhibition, %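 (about 9 µM by stock and volumes)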; 290,000 compounds, 0.75% hits; in the data active = inhibition above about 30%; inconclusive = no clear call, values can overlap the other calls;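 also: 0% = vehicle wells and 100% = reference inhibitor control wells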
Target sequence (P9WHJ3 whole entry, looked up): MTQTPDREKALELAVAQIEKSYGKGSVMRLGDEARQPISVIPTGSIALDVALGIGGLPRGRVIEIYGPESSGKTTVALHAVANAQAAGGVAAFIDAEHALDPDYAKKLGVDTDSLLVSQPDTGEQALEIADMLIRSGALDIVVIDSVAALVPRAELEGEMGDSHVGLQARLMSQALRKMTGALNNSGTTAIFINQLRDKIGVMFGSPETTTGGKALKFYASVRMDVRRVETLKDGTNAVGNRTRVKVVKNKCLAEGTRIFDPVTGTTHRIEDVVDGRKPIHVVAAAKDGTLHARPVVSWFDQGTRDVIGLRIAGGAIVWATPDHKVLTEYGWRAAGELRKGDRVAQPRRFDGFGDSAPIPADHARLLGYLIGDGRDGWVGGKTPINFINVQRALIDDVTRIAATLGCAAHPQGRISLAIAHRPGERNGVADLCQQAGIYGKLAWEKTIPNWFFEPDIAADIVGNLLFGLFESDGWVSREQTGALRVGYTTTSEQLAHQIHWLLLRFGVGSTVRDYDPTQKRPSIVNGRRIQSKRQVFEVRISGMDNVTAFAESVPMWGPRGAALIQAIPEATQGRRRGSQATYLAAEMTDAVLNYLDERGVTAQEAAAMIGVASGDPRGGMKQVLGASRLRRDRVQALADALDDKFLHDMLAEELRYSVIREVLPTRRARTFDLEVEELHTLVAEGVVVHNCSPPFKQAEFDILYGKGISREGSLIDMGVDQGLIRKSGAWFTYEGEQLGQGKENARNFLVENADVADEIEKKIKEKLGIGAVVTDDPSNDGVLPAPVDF
Arbovirus inh: antivirals against arbovirus infection, primary screen, cell-based, full library, 10K replicate subset; arbovirus infection cell-based antiviral screen; inhibition, % at 10 µM; 200,000 compounds, 0.37% hits;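 active = inhibition from about 30%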;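 also: bluetongue infection of BSR cells; cell survival read as ATP light after 72 h; 0% = infected wells without compound and 100% = uninfected wells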
YopH inh: YopH tyrosine phosphatase inhibitors, primary screen, biochemical, fluorescence Ex485/Em525; YopH tyrosine phosphatase [Yersinia enterocolitica]; AID 898, 2007; 140,000 compounds, 0.16% hits; inhibition, %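 (about 10 µM by stock and volumes)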;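 active = inhibition of 50% or more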;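 also: controls were vehicle for no effect and minimum signal wells for full effect; inactives centre near -20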
Mtb H37Rv: M. tuberculosis H37Rv growth inhibitors, H37Rv strain (AID 1626) | M. tuberculosis H37Rv growth inhibition; higher % means a stronger effect | inhibition, % at 10 µM, or IC50 in µM where a hit was titrated | 220,000 compounds, 0.95% hits;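 active = confirmed in a dose series; inconclusive = inhibition above 80% but not taken into the dose series; inactive = below 80% or under 30% at every dose of the series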;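 also: bacteria incubated seven days before Alamar blue readout; 0% = bacteria only wells and 100% = bacteria with antibiotic wells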
Arbovirus inh repeat: further read-out of Arbovirus inh, marked with its call; inhibition, %; measured here: 10K subset replicate screen; many hits read low in the repeat;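 first of two repeat runs on a subset; 0% = infected and 100% = uninfected wells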
Active calls of the source: *; i = inactive; ? = inconclusive; / = not tested or not shown. This is a subset, so the mix of outcomes need not match the whole.

SMILES	Mtb betalactam	RecA intein inh	Arbovirus inh	YopH inh	Mtb H37Rv	others
Cc1ccccc1Cn1ccc(NC(=O)c2onc(C)c2Cl)n1	5	1.8	-23	-24	0%	Arbovirus inh repeat=-18
CC(C)(C)c1ccc(C(=O)Cn2cnnc2C#N)cc1	19	34*	/	/	/
Cc1cc(C)n2nc(SCC(=O)Nc3ccc(O)cc3)nc2n1	-3	-3.3	/	/	/
CC(C)Sc1sc(C(=O)O)c(-c2ccc(Cl)cc2)c1C#N	1	-4.0	/	/	-8%
O=C(/C=C/c1ccccc1[N+](=O)[O-])OCC(=O)c1ccccc1	-3	-0.9	3	/	0%
CC(C)(C)S(=O)(=O)c1ccccc1-c1noc(-c2ccccc2)c1C(N)=O	-3	2.0	/	/	/
Cc1nc(N)c(C#N)c(-c2cccnc2)c1-c1ccccc1	?	-1.8	/	/	/
CCC(=O)N1CCc2cc(Br)cc(S(=O)(=O)NCCCN(C)Cc3ccccc3)c21	-3	-3.6	/	/	/
Nc1nn(S(=O)(=O)c2ccccc2)cc1-c1cccc([N+](=O)[O-])c1	0	1.1	-4	/	-2%
Cc1ccc(S(=O)(=O)CCc2nc3ccccc3s2)cc1C	-13	-4.0	9	-12	6%
CCOC(=O)Cc1csc(NC(=O)CSc2nnnn2-c2ccc(F)cc2)n1	-1	-1.0	0	-30	-6%
Cc1c(C)n(C)c2ccc([N+](=O)[O-])cc12	-8	4.0	1	4	3%
Cc1ccccc1OCC(=O)Nc1cccc(N(C)S(C)(=O)=O)c1	-7	-0.7	1	13	-7%
Brc1cc2c(cc1CN1CCc3ccccc3C1)OCO2	-3	-1.2	/	/	/
COc1ccc(NC(=O)CN2C3CCC2CC(O)(c2cccnc2)C3)cc1OC (centres undefined)	-6	-1.0	10	-47	-8%
CCN(CC)S(=O)(=O)c1ccc(N2CCOCC2)c(NC(=O)c2cccc(C#N)c2)c1	13	0.9	5	/	-3%
CC(C)CC(=O)Nc1ccc(-c2nc3ccccc3c(=O)o2)cc1	98	-0.2	12	-6	?
CCCN(CCC)CC(C)(C)NS(=O)(=O)c1ccc(Cl)cc1	1	2.2	/	/	3%
Cc1cccn2c(=O)c3cc(C(=O)NCc4cccnc4)c(=N)n(CC4CCCO4)c3nc12 (centres undefined)	3	i	/	/	/
COc1cccc(C(Nc2ccccn2)c2c(NC(=O)c3ccco3)sc(C)c2C)c1 (centres undefined)	-1	20	4	-28	-2%
CCOC(=O)c1ccccc1NC(=O)CSc1nnnn1C	-17	2.0	3	-15	-2%
CCOc1cccc(CN2CCCC(C(=O)Nc3cccc(-n4cccn4)c3)C2)c1 (centres undefined)	94	0.2	/	/	/
CCc1cc[n+](/C(C(=S)Nc2cccc(C)c2)=C(/[O-])c2ccc(C)c([N+](=O)[O-])c2)cc1	-4	2.8	0	9	-5%
O=C(NC1CC1)C1=C[C@@H](C2CC2)C[C@@H](OCc2ccc(CO)cc2)O1	0	2.7	/	/	-14%
CC(=O)c1n[nH]nc1Nc1nc(C)cc(C)n1	13	0.3	1	-21	4%
COc1ccc(OCCSc2ncccn2)cc1	1	2.3	3	-37	1%
COc1cccc(-c2cc(C(=O)NCCCn3ccnc3)c3ccccc3n2)c1	-1	2.9	-6	-16	3%
Cc1cc(NS(=O)(=O)c2ccc(N3C(=O)C4C5C=CC(C5)C4C3=O)cc2)nc(C)n1 (centres undefined)	?	-1.0	2	-13	-2%
COc1ccc(-c2cc(CCCC(=O)NCCc3ccccc3)no2)cc1	-2	1.5	/	/	/
CCCCOC(=O)N1CCOCCOCCOCC1	-8	0.1	/	/	4%
Cc1ccc(S(=O)(=O)NCC(=O)OCc2nnc(-c3ccccc3)o2)cc1C	-4	4.2	-1	-14	-6%
Cc1ccc(C)c(N2CCN(C(=S)Nc3ccc4nc(N5CCN(C)CC5)cc(C)c4c3)CC2)c1	97	2.6	-27	/	?
Nc1nc(-c2ccc3ccccc3c2)c(C2(O)C(=O)Nc3c(Br)cc(F)cc32)s1 (centres undefined)	-1	-1.6	6	-25	4%
COc1ccc(N2CC(C(=O)Nc3nnc(SCC(=O)N4CCOCC4)s3)CC2=O)cc1 (centres undefined)	-11	-0.8	/	/	/
O=C(O)/C=C/C(=O)Nc1ccc(Cc2ccc(NC(=O)/C=C/C(=O)O)cc2)cc1	-9	25	/	/	-19%
CC(=O)Nc1ccccc1OCC(O)CS(=O)(=O)c1ccc(C(F)(F)F)cn1 (centres undefined)	-4	-6.5	/	/	/
C=CCN=C1NN=C(c2cc(C)n(CC=C)c2C)CS1	80	8.5	1	-10	-2%
CCOC(=O)CC(NC(=O)c1cc2cc(Cl)cc(Cl)c2oc1=O)c1cccc([N+](=O)[O-])c1 (centres undefined)	96	-3.0	-6	-9	2%
Cc1ccc(S(=O)(=O)c2nc(S(=O)(=O)c3ccccc3)sc2N2CCN(C)CC2)cc1	-4	9.5	/	/	/
CN(C)C(=O)COc1ccc2ccc(=O)oc2c1	3	-0.5	6	-51	-5%
COc1ccc(N2CCN(C(c3cccs3)C(C)NC(=O)C(=O)N3CCCC3)CC2)cc1 (centres undefined)	-8	1.1	/	/	/
CC(=O)c1cccc(NC(=O)Nc2ccc3c(c2)OCO3)c1	-1	-1.5	/	/	/
Cc1cccc(N2CCN(CCCNC(=O)C3CCCN(c4ncnc5c4nc4n5CCCCC4)C3)CC2C)c1 (centres undefined)	62	-0.4	/	/	/
CCC(=O)Nc1ccc(C(=O)N/N=C/c2ccc([N+](=O)[O-])cc2)cc1	11	8.2	-2	-19	5%
CC(C)(CNC(=O)C1CCCN1C(=O)c1cccs1)N1CCOCC1 (centres undefined)	0	-1.8	0	/	-4%
O=C(NCCN1C(=O)S/C(=C\c2ccc(F)cc2)C1=O)C1CCN(S(=O)(=O)c2cccs2)CC1	0	-3.0	-10	-18	-5%
O=S(=O)(N1CCOCC1)n1cnc2ccccc21	1	/	4	-30	-2%
CCc1cc(=O)oc2c3c(cc(OCC(=O)NCc4ccco4)c12)OC(C)(C)CC3	-9	7.1	/	/	/
Cc1cc(Cl)c2oc(C(=O)NCCC3CCCCO3)c(C)c2c1 (centres undefined)	66	4.1	/	/	/
O=c1c2cc(NC(=S)NC3CCN(Cc4ccccc4)CC3)ccc2nc2n1CCCCC2	9	-1.5	-27	/	-3%
CCCCN(c1ccccc1)S(=O)(=O)c1cccc(C(=O)O)c1	9	1.2	-7	/	-7%
S=C(NCCc1ccccn1)NC1CC2CCC1C2 (centres undefined)	-3	0.5	/	/	2%
Cn1c(C(=O)Nc2ccc3c(c2)OCO3)cc2sccc21	52	12	-23	-8	2%
O=C(CN1C(=O)CCC1=O)NCC12CC3CC(CC(C3)C1)C2	-4	1.5	8	-14	1%
CCOP(=S)(NN(Cc1ccccc1)C(=O)c1ccccc1)OCC	2	5.6	6	-15	13%
CS(=O)(=O)N(CC(=O)N1CCC(C(N)=O)CC1)C1CCCCC1	-6	4.0	12	-43	-10%
CCC(=O)N1N=C(c2ccc(Cl)cc2)CC1c1ccco1 (centres undefined)	3	7.2	/	/	11%
O=C(CSC(=S)N1CCCCC1)Nc1ncc2c(n1)CCCC2=O	-2	-0.3	/	/	7%
CS(=O)(=O)N1CCN(c2nc(-c3ccccc3)cs2)CC1	3	1.0	-8	-41	-2%	Arbovirus inh repeat=7
CCOC(=O)CSc1nc2ccc(NC(C)=O)cc2s1	84	0.4	0	-52	29%

Remaining list, next part
SMILES	Mtb betalactam	RecA intein inh	Arbovirus inh	YopH inh	Mtb H37Rv	others
COc1ccc(C(C)=O)cc1CSc1nnc(-c2ccncc2)n1C	1	0.2	1	/	-2%
Cc1occc1C(=O)Nc1cccc2ccccc12	52	7.8	-7	-1	6%
Cc1cc2ncn(N)c2cc1C	6	2.4	2	-10	0%
CC(=O)c1ccccc1NC(=O)COC(=O)/C(=C/c1ccccc1)n1nnnc1C	10	1.6	/	/	/
COc1ccccc1Nc1nn2c(=O)c3ccc(C(=O)N4CCCCC4)cc3nc2s1	-4	-1.1	/	/	/
COc1ccc(C(=O)OCC2CC(c3ccccc3)N(C)O2)cc1 (centres undefined)	10	-4.3	2	-42	1%
CCn1c(=O)n(CC(=O)N2CCC3(CC2)OCCO3)c(=O)c2ccccc21	3	1.4	-2	-35	-7%
CN1CCc2c(sc(NC(=O)c3ccc(S(=O)(=O)N4CCc5ccccc54)cc3)c2C(N)=O)C1	-7	-1.8	/	/	10%
COc1ccc(-n2c(=O)c3c4c(sc3n3c(=S)[nH]nc23)CCC4)cc1	-1	1.4	/	/	3%
COc1cccc(C2=CC(c3ccc(N(C)C)cc3)n3nnnc3N2)c1 (centres undefined)	5	-6.3	-10	-30	5%
Cn1c(=O)c2ncn(CC(=O)Nc3cc(C(F)(F)F)ccc3N3CCOCC3)c2n(C)c1=O	0	6.4	-3	-24	-8%
CCOC(=O)CN1C(=O)C(C)(C)Oc2ccc(C(=O)Nc3ccccc3OC)cc21	2	3.4	8	-44	-1%
CCCc1[nH][nH]c(=O)c1C(c1ccc(Br)cc1)C(C#N)C#N (centres undefined)	-4	66*	2	-114	-8%
O=C(CCC(=O)Nc1ccccc1)NNC(=O)COc1ccccc1	-6	-1.2	1	-29	-7%
Cc1ccccc1-n1nc2c(c1NC(=O)c1cc3ccccc3o1)CS(=O)(=O)C2	-2	-0.2	/	/	/

3 consecutive compounds already listed, quoted:
SMILES	Mtb betalactam	RecA intein inh	Arbovirus inh	YopH inh	Mtb H37Rv	others
COc1ccc(C(=O)OCC2CC(c3ccccc3)N(C)O2)cc1 (centres undefined)	10	-4.3	2	-42	1%
CCn1c(=O)n(CC(=O)N2CCC3(CC2)OCCO3)c(=O)c2ccccc21	3	1.4	-2	-35	-7%
CN1CCc2c(sc(NC(=O)c3ccc(S(=O)(=O)N4CCc5ccccc54)cc3)c2C(N)=O)C1	-7	-1.8	/	/	10%

Returning to the listing, repeating the 6 entries before the break.
SMILES	Mtb betalactam	RecA intein inh	Arbovirus inh	YopH inh	Mtb H37Rv	others
COc1cccc(C2=CC(c3ccc(N(C)C)cc3)n3nnnc3N2)c1 (centres undefined)	5	-6.3	-10	-30	5%
Cn1c(=O)c2ncn(CC(=O)Nc3cc(C(F)(F)F)ccc3N3CCOCC3)c2n(C)c1=O	0	6.4	-3	-24	-8%
CCOC(=O)CN1C(=O)C(C)(C)Oc2ccc(C(=O)Nc3ccccc3OC)cc21	2	3.4	8	-44	-1%
CCCc1[nH][nH]c(=O)c1C(c1ccc(Br)cc1)C(C#N)C#N (centres undefined)	-4	66*	2	-114	-8%
O=C(CCC(=O)Nc1ccccc1)NNC(=O)COc1ccccc1	-6	-1.2	1	-29	-7%
Cc1ccccc1-n1nc2c(c1NC(=O)c1cc3ccccc3o1)CS(=O)(=O)C2	-2	-0.2	/	/	/
Cc1cccc(CC(Cc2nc3ccccc3[nH]2)c2nc3ccccc3[nH]2)c1 (centres undefined)	81	20	-8	-13	3%
CCOC(=O)C1=C(C)OC(N)=C(C(=O)OCC)C1c1cccnc1 (centres undefined)	-15	-0.1	-5	-22	-1%
Cc1cc(Cl)ccc1NNC(=O)CCc1ccccc1	97	-0.8	/	/	?
COc1cc(C)c(C(=O)Oc2cc(C)c(C(=O)O)c(O)c2C)c(O)c1C	-10	9.8	/	/	0%
O=C(Cc1csc(Nc2nc(=S)[nH]c3ccccc23)n1)NCc1cccc(Cl)c1	50	/	-3	6	/
O=C(NCCCNC(=O)c1ccccn1)c1ccc(Br)cc1	0	1.8	/	/	/
O=S(=O)(NCc1ccc(F)cc1)c1cccc(S(=O)(=O)N2CCOCC2)c1	-5	-1.5	-1	-13	5%
CCc1ccc(NC(=S)NNC(=O)c2ccccc2OC(F)F)cc1	2	0.6	-9	-14	5%
O=C(COc1ccc2c3c(c(=O)oc2c1)CCC3)N1CCCCC1	3	-0.6	/	/	/
Cc1cccc2nc(CSCc3ccco3)cn12	-4	-0.6	11	0	-3%

Screens from PubChem.
